Screening data: PubChem BioAssay, ICCB-Longwood Screening Facility, Harvard Medical School
HCMV NEC inh: inhibitors of HCMV UL50-UL53 nuclear egress complex interaction. inhibition, % (no concentration beside the values). HTRF UL50-UL53 interaction, normalized percent inhibition. 0.15% of 190,000 active;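 active = both replicates at 50% or more, plus weaker picks with an unusually low signal ratio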;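 note: stock transfer was 100 nL into about 20 µL; 0% = negative control wells and 100% = wells with untagged competitor protein; inactives centre near -12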
Sa growth 42C: blocks Staphylococcus aureus growth; S. aureus RN4220 growth, OD600, 20 h, 42 °C; stronger effect = lower value; relative growth, % (no concentration beside the values); 0.53% of 170,000 active; AID 720641;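 active = growth at 42 °C up to 50% and 20 or more points under that at 30 °C, or under 10% at both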;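 note: 300 nL library stock went into each well; scaled to the means of positive and negative controls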
GIV-Gai inh: inhibitors of GIV GBA-motif binding to rat Galpha-i3. P08753. Galpha-i3/FITC-GIV peptide fluorescence polarization, 90 min; stronger effect = lower value; scaled: aluminum fluoride 0%, vehicle 100%. percent of control (FP), % (test concentration not listed). 0.42% of 210,000 active;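 active = replicate mean at 85% of control or lower, very high polarization wells dropped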;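 note: wells of about 15 µL received 100 nL stock; the first replicate is given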
Target sequence (P08753 whole entry, looked up): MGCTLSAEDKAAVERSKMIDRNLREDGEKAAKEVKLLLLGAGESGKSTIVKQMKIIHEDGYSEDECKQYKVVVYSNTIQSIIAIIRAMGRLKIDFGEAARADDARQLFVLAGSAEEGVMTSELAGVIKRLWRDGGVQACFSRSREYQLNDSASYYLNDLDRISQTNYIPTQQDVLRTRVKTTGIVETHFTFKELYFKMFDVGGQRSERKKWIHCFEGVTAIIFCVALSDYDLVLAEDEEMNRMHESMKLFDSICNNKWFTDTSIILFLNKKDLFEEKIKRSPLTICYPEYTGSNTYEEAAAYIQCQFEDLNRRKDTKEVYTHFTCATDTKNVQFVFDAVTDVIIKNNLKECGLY
Sa growth 42C second temp: further read-out of Sa growth 42C, marked with its call; relative growth, %; measured here: growth at 30 °C;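 optical density after 20 h as mean of two plates; 100% = untreated growth and lower means inhibition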
Starred values were filed as active, the others as inactive; & = joins results of further samples.

Start of the data: the first 9 records (preview)
`Cc1ccc2[nH]c(=O)c(-c3nc4c(C)cccn4c3NCc3ccco3)cc2c1` gave HCMV NEC inh -6.8, Sa growth 42C 88.5, GIV-Gai inh 101.0 and Sa growth 42C second temp 99.8.
Screening CCC(C)Sc1c(C(C)C)cnc2c1c(=O)n(C)c(=O)n2C (stereo unspecified) returned Sa growth 42C 97.7, GIV-Gai inh 106.2&104.1 and Sa growth 42C second temp 101.1.
`CC(=O)c1ccc(NC(=O)c2ccc(-c3nc(CSc4ccc(C)cc4)c(C)o3)cc2)cc1` gave Sa growth 42C 163.0, GIV-Gai inh 102.3 and Sa growth 42C second temp 80.4.
`CC(C)C(=O)NCCCc1ccccc1` gave HCMV NEC inh -6.0, Sa growth 42C 113.1, GIV-Gai inh 100.3 and Sa growth 42C second temp 85.9.
For CCOc1ccccc1NC(=O)CN1CCC(NC(=O)Nc2ccccc2)CC1 the results were HCMV NEC inh -8.5, Sa growth 42C 91.7, GIV-Gai inh 102.1 and Sa growth 42C second temp 67.4.
CCCn1c(SCC(=O)C(C)(C)C)nc2ccccc21 was read as HCMV NEC inh 3.0, Sa growth 42C 86.9 and Sa growth 42C second temp 90.9.
For CC(NC(=O)c1c(-c2ccccc2)nc2n1CCS2(=O)=O)c1ccccc1 (stereo unspecified) the results were HCMV NEC inh -6.4 and GIV-Gai inh 97.7.
Screening CCN1CCN(C(c2ccccc2)c2c(O)cc(C)n(Cc3ccco3)c2=O)CC1 (stereo unspecified) returned Sa growth 42C 99.4, GIV-Gai inh 102.0 and Sa growth 42C second temp 89.2.
`NC1=NC(=O)C(Cc2ccc(OC(F)(F)F)cc2)S1` (stereo unspecified) gave HCMV NEC inh 7.4, Sa growth 42C 106.0, GIV-Gai inh 105.5 and Sa growth 42C second temp 90.5.

This part in full, from the start:
`Cc1ccc2[nH]c(=O)c(-c3nc4c(C)cccn4c3NCc3ccco3)cc2c1` gave HCMV NEC inh -6.8, Sa growth 42C 88.5, GIV-Gai inh 101.0 and Sa growth 42C second temp 99.8.
Screening CCC(C)Sc1c(C(C)C)cnc2c1c(=O)n(C)c(=O)n2C (stereo unspecified) returned Sa growth 42C 97.7, GIV-Gai inh 106.2&104.1 and Sa growth 42C second temp 101.1.
`CC(=O)c1ccc(NC(=O)c2ccc(-c3nc(CSc4ccc(C)cc4)c(C)o3)cc2)cc1` gave Sa growth 42C 163.0, GIV-Gai inh 102.3 and Sa growth 42C second temp 80.4.
`CC(C)C(=O)NCCCc1ccccc1` gave HCMV NEC inh -6.0, Sa growth 42C 113.1, GIV-Gai inh 100.3 and Sa growth 42C second temp 85.9.
For CCOc1ccccc1NC(=O)CN1CCC(NC(=O)Nc2ccccc2)CC1 the results were HCMV NEC inh -8.5, Sa growth 42C 91.7, GIV-Gai inh 102.1 and Sa growth 42C second temp 67.4.
CCCn1c(SCC(=O)C(C)(C)C)nc2ccccc21 was read as HCMV NEC inh 3.0, Sa growth 42C 86.9 and Sa growth 42C second temp 90.9.
For CC(NC(=O)c1c(-c2ccccc2)nc2n1CCS2(=O)=O)c1ccccc1 (stereo unspecified) the results were HCMV NEC inh -6.4 and GIV-Gai inh 97.7.
Screening CCN1CCN(C(c2ccccc2)c2c(O)cc(C)n(Cc3ccco3)c2=O)CC1 (stereo unspecified) returned Sa growth 42C 99.4, GIV-Gai inh 102.0 and Sa growth 42C second temp 89.2.
`NC1=NC(=O)C(Cc2ccc(OC(F)(F)F)cc2)S1` (stereo unspecified) gave HCMV NEC inh 7.4, Sa growth 42C 106.0, GIV-Gai inh 105.5 and Sa growth 42C second temp 90.5.
For COc1ccc(NC(=O)Cn2nc(C)c3nn(-c4ccc(Cl)cc4)c(C)c3c2=O)cc1 the results were Sa growth 42C 77.6, GIV-Gai inh 101.6 and Sa growth 42C second temp 87.7.
`COc1ccc(CCN2C(=O)CSC2c2ccccc2[N+](=O)[O-])cc1OC` (stereo unspecified) gave HCMV NEC inh -62.3 and GIV-Gai inh 100.6.
`CCOC(=O)c1c(NC(=O)CSc2nnc(-c3ccco3)o2)sc(C)c1C` gave HCMV NEC inh -11.9, Sa growth 42C 124.8, GIV-Gai inh 107.3 and Sa growth 42C second temp 93.2.
For Cc1cc(C)nc(N2CCC(C(=O)O)CC2)n1 the results were HCMV NEC inh -33.0 and GIV-Gai inh 103.8.
`CCN(CC)c1ccc(C(F)(F)F)cc1N` gave HCMV NEC inh 12.5, Sa growth 42C 107.1 and Sa growth 42C second temp 96.4.
CCCNC(=O)c1ccc2c(=O)n(CC3CCCO3)c(SCC(=O)c3ccccc3)nc2c1 (stereo unspecified) was read as HCMV NEC inh 2.6 and GIV-Gai inh 99.4.
`O=C(OCc1cc(=O)n2cc(Br)ccc2n1)c1ccc2c(=O)n3c(nc2c1)CCC3` gave HCMV NEC inh -34.3, Sa growth 42C 82.1 and Sa growth 42C second temp 75.9.
Screening CCCNC(=S)Nc1cc(OC)cc(OC)c1 returned HCMV NEC inh 6.6, Sa growth 42C 105.0, GIV-Gai inh 96.9 and Sa growth 42C second temp 105.3.
For CCN1CCCC1CNc1nsc2ccccc12 (stereo unspecified) the results were HCMV NEC inh -15.5, Sa growth 42C 71.4 and Sa growth 42C second temp 90.8.
Screening CCN(C(=O)COc1ccccc1C(N)=O)c1ccccc1 returned HCMV NEC inh 1.7, Sa growth 42C 99.0, GIV-Gai inh 101.6 and Sa growth 42C second temp 104.6.
Cc1ccc(NC(=O)COCc2cc(-c3cccs3)on2)cc1Cl was read as Sa growth 42C 102.3, GIV-Gai inh 105.9 and Sa growth 42C second temp 87.1.
For C=CCn1c(SCC(=O)Nc2ccccc2)nnc1C(CC(C)C)NC(=O)c1cccs1 (stereo unspecified) the results were HCMV NEC inh -0.2, Sa growth 42C 92.8, GIV-Gai inh 98.5 and Sa growth 42C second temp 95.9.
For Cc1cccnc1NC(=O)CN(C)S(=O)(=O)c1ccc2c(c1)CC(C)N2C(=O)C1CC1 (stereo unspecified) the results were HCMV NEC inh -3.0 and GIV-Gai inh 113.4.
Screening Cc1sc(-c2ccno2)cc1S(=O)(=O)N(Cc1ccco1)C1CCCC1 returned HCMV NEC inh -9.2 and GIV-Gai inh 101.2.
CN(C)c1ccc(-c2[nH]c(=S)[nH]c(=O)c2C#N)cc1 was read as Sa growth 42C 93.2, GIV-Gai inh 98.3 and Sa growth 42C second temp 81.3.
`COC(CNC(=O)c1c[nH]c2ccc(S(=O)(=O)N3CCC(C)CC3)cc2c1=O)OC` gave Sa growth 42C 98.8, GIV-Gai inh 103.5 and Sa growth 42C second temp 94.6.
Screening O=C(CCN1C(=O)C2(OCCO2)c2ccccc21)c1ccccc1 returned HCMV NEC inh -5.2 and GIV-Gai inh 104.0.
For CC1CCCN(C(=O)c2cc(=O)c3ccccc3o2)C1 (stereo unspecified) the results were HCMV NEC inh 4.6, Sa growth 42C 101.6 and Sa growth 42C second temp 93.0.
Screening Cc1c(/C=C(\C#N)C(=O)NCc2ccccc2)cc(C#N)n1C returned HCMV NEC inh -40.3, Sa growth 42C 104.3 and Sa growth 42C second temp 84.8.
`Cn1c(=NC(=O)c2ccc(=O)n(Cc3ccccc3)n2)sc2ccccc21` gave HCMV NEC inh -26.6, Sa growth 42C 106.4 and Sa growth 42C second temp 94.7.
Screening Cc1cc(C)cc(Nc2cc(C(=O)NCCCN(C)C3CCCCC3)c3ccccc3n2)c1 returned HCMV NEC inh -1.4, Sa growth 42C 113.8, GIV-Gai inh 101.4 and Sa growth 42C second temp 90.1.
O=C(Nc1ccc(OC(F)(F)F)cc1)c1cc(-c2ccc(Cl)cc2)on1 was read as HCMV NEC inh 11.1, Sa growth 42C 103.7, GIV-Gai inh 105.7 and Sa growth 42C second temp 101.9.
`Cc1ccc(Cn2ccn(Cc3cccc(C(F)(F)F)c3)c(=O)c2=O)cc1` gave HCMV NEC inh 9.6, Sa growth 42C 100.4, GIV-Gai inh 101.6 and Sa growth 42C second temp 104.3.
Screening O=C(Nc1ccccc1C(F)(F)F)NC1CCCCC1 returned Sa growth 42C 109.7, GIV-Gai inh 101.4 and Sa growth 42C second temp 82.4.
For CC(OC(=O)C1COc2ccccc2O1)C(=O)c1ccccc1 (stereo unspecified) the results were HCMV NEC inh -7.3, Sa growth 42C 84.4 and Sa growth 42C second temp 92.3.
Cn1cccc1C(C#N)c1cccc(F)c1C#N (stereo unspecified) was read as HCMV NEC inh -16.7 and GIV-Gai inh 100.9.
`COc1ccc(OC)c(NC(=O)c2[nH]c(C)c(S(=O)(=O)N3CCCCC3)c2C)c1` gave HCMV NEC inh -34.0 and GIV-Gai inh 110.7.
For CCn1c(=O)c(C(=O)Nc2nccs2)c(O)c2ccccc21 the results were HCMV NEC inh 9.4&-30.3, Sa growth 42C 93.0, GIV-Gai inh 104.5&104.9 and Sa growth 42C second temp 120.0.
For CN1CCN(C(CNC(=O)C(=O)Nc2ccc(Cl)cc2)c2cccnc2)CC1 (stereo unspecified) the results were HCMV NEC inh -9.1, Sa growth 42C 118.0, GIV-Gai inh 101.7 and Sa growth 42C second temp 91.7.
`CCOCCCN1C(=O)c2cc3c(OC)ccc(OC)c3n2CC1(C)C(=O)NC1CCC(C)CC1` (stereo unspecified) gave HCMV NEC inh -5.2 and GIV-Gai inh 100.0.
`Cc1ccc(N(CC(=O)NCCC2=CCCCC2)S(=O)(=O)c2c(C)nn(C)c2C)cc1` gave HCMV NEC inh -6.3 and GIV-Gai inh 98.0.
O=C1NC(=Nc2ccccc2Cl)S/C1=C\c1cccc([N+](=O)[O-])c1O was read as HCMV NEC inh -34.9 and GIV-Gai inh 151.3.
CCCCOc1ccc(C2c3c(oc4ccccc4c3=O)C(=O)N2c2nc(C)c(C(=O)OCC)s2)cc1OC (stereo unspecified) was read as HCMV NEC inh -34.0, Sa growth 42C 93.5, GIV-Gai inh 103.8 and Sa growth 42C second temp 90.5.
For Cc1ccc(-c2csc(-c3ccc(C(F)(F)F)cc3)n2)cc1 the results were HCMV NEC inh -28.9, Sa growth 42C 100.4, GIV-Gai inh 100.1 and Sa growth 42C second temp 83.1.
For CCC(C)N=C1NS(=O)(=O)C(c2ccc(F)cc2)=C1C (stereo unspecified) the results were HCMV NEC inh -17.5, Sa growth 42C 108.0, GIV-Gai inh 104.3 and Sa growth 42C second temp 89.7.
Screening CCOC(=O)c1ccc2c(c1)N(Cc1cccc(OC)c1)C(=O)c1ccccc1S2(=O)=O returned Sa growth 42C 111.3, GIV-Gai inh 104.6 and Sa growth 42C second temp 93.9.
c1ccc(-c2cc(-c3ccccc3)n(-c3ccccc3)n2)cc1 was read as HCMV NEC inh -11.3, Sa growth 42C 92.5 and Sa growth 42C second temp 90.8.
`Cc1nn2cnnc2c(C)c1CCC(=O)NCCCc1ccccc1` gave HCMV NEC inh -10.8, Sa growth 42C 98.4, GIV-Gai inh 112.2 and Sa growth 42C second temp 97.5.
Screening Cn1[nH]c2nc3[nH]n(C)c(=O)c3c(-c3ccccc3)c2c1=O returned HCMV NEC inh -9.9, Sa growth 42C 100.8, GIV-Gai inh 109.7 and Sa growth 42C second temp 97.8.
Screening CC(=O)Nc1ccc(C(=O)OC2CCCCC2=O)cc1 (stereo unspecified) returned HCMV NEC inh -22.4, Sa growth 42C 88.4 and Sa growth 42C second temp 87.0.
`O=C(NCCCCCCOC1=NS(=O)(=O)c2ccccc21)C(=O)Nc1ccccc1` gave HCMV NEC inh -4.8 and GIV-Gai inh 93.8.
Screening O=C(Nc1cccc(F)c1C(=O)NCCc1ccncc1)c1cccc(C(F)(F)F)c1 returned Sa growth 42C 110.4, GIV-Gai inh 100.5 and Sa growth 42C second temp 88.5.
For COC(=O)c1ccc(N2N=C(C)/C(=C/c3ccc(-c4ccc(S(N)(=O)=O)cc4)o3)C2=O)cc1 the results were HCMV NEC inh 2.2 and GIV-Gai inh 104.8.
`COc1cc(=O)n(-c2ccc(F)cc2)nc1C(=O)Nc1ccc(-c2nc3ccc(C)cc3s2)cc1` gave HCMV NEC inh -33.6 and GIV-Gai inh 115.0.
COc1ccc2cc3cc(C(=O)NCc4ccc(F)cc4)sc3nc2c1 was read as HCMV NEC inh 8.0, Sa growth 42C 109.0, GIV-Gai inh 95.3 and Sa growth 42C second temp 92.0.
For CS(=O)(=O)Nc1nc2n(n1)C(c1c(F)cccc1Cl)C=C(c1ccc(Cl)cc1)N2 (stereo unspecified) the results were HCMV NEC inh -29.8 and GIV-Gai inh 101.2.
Screening COc1cc(OC)cc(C(=O)Nc2nc(CC(=O)Nc3nc4c(C)cccc4s3)cs2)c1 returned HCMV NEC inh -24.4 and GIV-Gai inh 105.1.
Cc1noc(COc2ccccc2)c1C(=O)O was read as HCMV NEC inh 7.5, Sa growth 42C 95.0, GIV-Gai inh 104.8 and Sa growth 42C second temp 103.7.
Cc1ccc(CNS(=O)(=O)c2cn(C)c(=O)n(C)c2=O)cc1 was read as HCMV NEC inh -7.2, Sa growth 42C 106.2, GIV-Gai inh 106.6 and Sa growth 42C second temp 91.6.
`CC1CCC(NC(=O)C2(C)Cn3c(cc4occc43)C(=O)N2CC2CCCO2)CC1` (stereo unspecified) gave HCMV NEC inh -19.4 and GIV-Gai inh 102.0.
Screening S=C(CN1CCCC1=S)NCCc1ccccc1 returned Sa growth 42C 132.4, GIV-Gai inh 95.0 and Sa growth 42C second temp 75.6.
Screening CC1CN(Cc2c(O)ccc3c(=O)c(-c4ccccc4Cl)coc23)CC(C)O1 (stereo unspecified) returned HCMV NEC inh 18.4, Sa growth 42C 100.9, GIV-Gai inh 106.4 and Sa growth 42C second temp 99.3.
